Arbovirus anti = arbovirus infection inhibition. actives 0.37% (n = 200,000). AID 1251. arbovirus infection cell-based antiviral screen. inhibition, % at 10 µM;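 active means inhibition from about 30%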;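 further: bluetongue infection of BSR cells; cell survival read as ATP light after 72 h; 0% = infected wells without compound and 100% = uninfected wells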
Mtb bLac sens = beta-lactam sensitization of Mtb H37Rv; M. tuberculosis H37Rv growth with meropenem, percent inhibition; hits of this screen are not shown here; inhibition, % at 25 µM; actives 0.27% (n = 330,000);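 active means about 74% or more and at least 40 points above the plate without the antibiotic, then above 30% in a dose series; inconclusive means first-round hits that could not be retested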;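 further: growth measured after seven days incubation then overnight dye step; 0% = bacteria only wells and 100% = bacteria with antibiotic; twin plates without the antibiotic show which effects depend on it; some results filed as inactive read as strong as hits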
Mtb H37Rv = M. tuberculosis H37Rv growth inhibitors, H37Rv strain (AID 1626); actives 0.95% (n = 220,000); inhibition, % at 10 µM; hits with a dose series show IC50 in µM; M. tuberculosis H37Rv growth inhibition; higher % means a stronger effect;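 active means confirmed in a dose series; inconclusive means inhibition above 80% but not taken into the dose series; inactive means below 80% or under 30% at every dose of the series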;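 further: bacteria incubated seven days before Alamar blue readout; 0% = bacteria only wells and 100% = bacteria with antibiotic wells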
YopH PTP inh = inhibitors of Yersinia enterocolitica YopH tyrosine phosphatase; fluorescence Ex485/Em525; inhibition, %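 (about 10 µM by stock and volumes)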; actives 0.16% (n = 140,000); AID 898;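 active means inhibition of 50% or more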;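 further: controls were vehicle for no effect and minimum signal wells for full effect; inactives centre near -20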
RecA intein inh = Mtb RecA intein splicing inhibition; actives 0.75% (n = 290,000); AID 2221; cell-free RecA intein splicing, fluorescence; inhibition, %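 (about 9 µM by stock and volumes)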; in the data active means inhibition above about 30%; inconclusive means no clear call, values can overlap the other calls;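 further: 0% = vehicle wells and 100% = reference inhibitor control wells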
Target sequence (P9WHJ3 whole entry, looked up): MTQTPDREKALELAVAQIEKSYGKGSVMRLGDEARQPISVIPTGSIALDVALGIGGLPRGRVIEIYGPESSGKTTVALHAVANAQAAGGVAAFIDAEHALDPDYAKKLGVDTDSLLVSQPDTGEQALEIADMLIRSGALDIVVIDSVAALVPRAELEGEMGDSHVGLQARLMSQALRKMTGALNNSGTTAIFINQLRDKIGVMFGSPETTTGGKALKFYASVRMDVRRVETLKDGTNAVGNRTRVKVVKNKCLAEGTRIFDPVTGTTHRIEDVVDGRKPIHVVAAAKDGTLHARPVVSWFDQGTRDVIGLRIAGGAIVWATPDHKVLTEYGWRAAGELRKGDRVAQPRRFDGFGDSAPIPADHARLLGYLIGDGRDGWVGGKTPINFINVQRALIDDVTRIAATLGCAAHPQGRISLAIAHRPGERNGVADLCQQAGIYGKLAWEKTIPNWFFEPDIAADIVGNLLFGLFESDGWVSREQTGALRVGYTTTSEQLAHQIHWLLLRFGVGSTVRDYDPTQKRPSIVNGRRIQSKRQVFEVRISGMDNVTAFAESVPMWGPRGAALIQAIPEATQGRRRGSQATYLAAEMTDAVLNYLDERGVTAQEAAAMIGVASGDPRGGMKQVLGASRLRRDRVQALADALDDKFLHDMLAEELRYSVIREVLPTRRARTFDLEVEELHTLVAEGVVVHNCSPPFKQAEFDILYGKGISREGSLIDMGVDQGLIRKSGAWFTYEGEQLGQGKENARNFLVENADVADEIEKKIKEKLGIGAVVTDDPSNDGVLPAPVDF
Arbovirus anti repeat = further read-out of Arbovirus anti, marked with its call; inhibition, %; measured here: 10K subset replicate screen; many hits read low in the repeat;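 first of two repeat runs on a subset; 0% = infected and 100% = uninfected wells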
The depositor's hits bear a star; ? = inconclusive; . = not tested or not shown.

SMILES	Arbovirus anti	Mtb bLac sens	Mtb H37Rv	YopH PTP inh	RecA intein inh	others
O=C(c1ccc2c(=O)n(C3CCCC3)c(=S)[nH]c2c1)N1CCN(C2CCCCC2)CC1	2	9	.	-55	-2.4
CCS(=O)(=O)CCSc1nc2c(cc1C#N)CCCC2	-2	2	-5%	-84	0.5
CN(C)CCNC(=O)COc1cccc(Cl)c1	8	-10	-9%	-21	-18
Cc1ccc(NC(=O)Cn2nc([N+](=O)[O-])c(Br)c2C)cc1C	-7	6	-14%	5	-0.5
O=[N+]([O-])c1cccc(-c2nc(-c3ccncc3)no2)c1	3	-4	.	-33	-2.1
COc1ccccc1N1CCN(S(=O)(=O)c2cc(Br)cnc2N)CC1	.	-2	.	.	-1.2
Nc1c(-c2ccccc2)c(CN2CCOCC2)nn1-c1ccc(F)cc1	11	4	5%	15	-4.1
O=C(NC1(C(F)(F)F)N=C(c2ccccc2)NC1=O)c1ccccc1 (configuration not stated)	2	-2	-4%	-10	0.6
Cn1ncc2c(N3CCC(Cc4ccccc4)CC3)ncnc21	-26	12	11%	.	4.1
COc1ccccc1OCCNC(=O)C(c1ccccc1)c1ccccc1	.	3	-1%	.	-1.1
CCOC(=O)CC(=O)CSc1nc(N)c(C#N)c(-c2ccc(F)cc2)c1C#N	16	27	-3%	-41	-7.0
Cn1c(NC(=O)c2ccc(F)cc2)nc2ccccc21	.	89	.	.	1.1
COc1cc(O)oc1C=Nc1ccc(C(=O)O)cc1	8	1	5%	.	-3.7
CNS(=O)(=O)c1ccc(N=Cc2c(O)n(-c3ccc(C)cc3)c(=O)[nH]c2=O)cc1	.	3	.	.	-2.7
CC1Oc2ccccc2N(Cc2ccccc2F)C1=O (configuration not stated)	-9	31	-7%	-11	-0.1
Cc1ccc(NC(=O)c2sc(N)nc2-c2ccc([N+](=O)[O-])cc2)c(C)c1	.	0	-7%	.	0.7
COC(=O)c1cc(C(=O)Nc2nnc(C3CC3)s2)cc([N+](=O)[O-])c1	7	3	1%	-25	-2.3
NC(=O)CC(NC(=O)Cc1cccc2ccccc12)c1ccc(NCc2ccccn2)c([N+](=O)[O-])c1 (configuration not stated)	.	-10	-8%	.	-1.4
Cc1nc(CC(=O)NNS(=O)(=O)c2ccc(F)c(Cl)c2)cs1	5	-1	2%	-44	-3.8
Cc1ccc2[nH]c(=O)c(CN(CC3COCCO3)C(=O)Nc3ccccc3C)cc2c1 (configuration not stated)	-5	3	-1%	.	1.8
COc1ccc(NC(=O)Nc2ccc(OCC(=O)N3CCOCC3)cc2)cc1OC	3	1	-2%	-20	.	Arbovirus anti repeat=3
COc1ccc(C(=O)OCC(=O)Nc2nc3c(F)c(F)c(F)cc3s2)cc1OC	-4	19	5%	.	0.8
O=C(COc1ccccc1[N+](=O)[O-])Nc1cccc(C(=O)Nc2ccccc2C(=O)O)c1	.	-1	.	.	5.0
CC(=O)c1sc(NC(=O)CCCOc2ccc(Cl)cc2)nc1C	-11	-4	-15%	.	-0.1
Cc1ccc(NC(=S)NC(=O)/C=C/c2ccc(Cl)cc2)cc1	-7	2	9%	-19	-3.2

Three structures from above, sorted by molar mass, highest first:
SMILES	Arbovirus anti	Mtb bLac sens	Mtb H37Rv	YopH PTP inh	RecA intein inh	others
COc1ccc(NC(=O)Nc2ccc(OCC(=O)N3CCOCC3)cc2)cc1OC	3	1	-2%	-20	.	Arbovirus anti repeat=3
Cc1ccc(NC(=O)Cn2nc([N+](=O)[O-])c(Br)c2C)cc1C	-7	6	-14%	5	-0.5
CC(=O)c1sc(NC(=O)CCCOc2ccc(Cl)cc2)nc1C	-11	-4	-15%	.	-0.1

The list goes on.
SMILES	Arbovirus anti	Mtb bLac sens	Mtb H37Rv	YopH PTP inh	RecA intein inh	others
CCCN(CCc1ccccc1)C1CCc2c(O)cccc2C1 (configuration not stated)	.	7	-4%	.	1.9
CCN(Cc1ccccc1)C1CCN(Cc2ccc(SC)cc2)CC1	-14	-21	4%	.	2.5
NC(=O)COC(=O)c1ccc2c(c1)C(=O)N(Cc1ccco1)C2=O	.	7	.	.	-1.5
CCCCn1c(N)c(N2CCOCC2)c(=O)n(CC(=O)NCCc2ccccc2)c1=O	9	-4	0%	.	-1.1
COc1ccc(Oc2ccccc2/C=C/C(=O)O)cc1	9	-7	-4%	-28	-1.3
CC(C)COP(=O)(OCC(C)C)C(Nc1ccccc1)c1ccc(F)cc1 (configuration not stated)	-9	7	3%	-22	4.5
O=C(c1ccc(CNc2c(N3CCCC3)c(=O)c2=O)cc1)N1CCc2ccccc2C1	-2	100	?	0	0.2	Arbovirus anti repeat=1
O=S(=O)(CCc1ccccc1)N1CCOCC1	9	-1	-3%	-34	-0.5	Arbovirus anti repeat=2
CC(C)C(NS(=O)(=O)c1ccccc1F)C(=O)N1CCc2ccccc2C1 (configuration not stated)	.	3	.	.	-3.4
CC(=O)NC(NC(=S)Nc1ccc(S(N)(=O)=O)cc1)C(Cl)(Cl)Cl (configuration not stated)	.	-1	-4%	.	0.6
COc1ccc(CNC(=O)COC(=O)c2cc(-c3cccs3)nc3ccccc23)cc1OC	-10	-6	-7%	-37	-2.1
CCCN(c1ccc(C)cc1)c1nc(=O)c2cccnc2s1	.	3	3%	.	1.7
Cc1ccc(N2CCN(CC(=O)Nc3c(C(=O)C4CC4)oc4ccccc34)CC2)cc1	3	.	6%	-45	.
C=CCNC(=S)Nc1cc(C)ccn1	6	3	-1%	.	-2.2
COn1c(SCC(N)=O)nc2ccccc2c1=O	1	-4	-6%	-48	-3.3
Cc1nn2c(=O)cc(COC(=O)c3ccc(S(=O)(=O)N4CCCCC4)cc3)nc2s1	0	0	.	-22	-1.7
COC(=O)c1csc(S(=O)(=O)N2CCCCC2)c1OC	.	3	-6%	.	1.3
COc1ccc(CCNC(=O)COC(=O)C2CC2)cc1	-1	52	-2%	.	-2.1
COc1ccc(NC(=S)NC(=O)/C=C/c2ccc(F)cc2)cc1	.	5	.	.	-2.9
CC(=O)Nc1cc(NC(C)=O)cc(C(=O)OC(C)C(=O)Nc2ccc(S(=O)(=O)N3CCCC3)cc2)c1 (configuration not stated)	.	-9	.	.	0.2
COc1cc(N)c(C(O)c2nccc3cc(OC)c(OC)cc23)cc1OC (configuration not stated)	.	-6	.	.	-0.2
C/C(CC(=O)Nc1cccc(Cl)c1Cl)=N\NC(=O)C(=O)NC1CCCCC1	.	0	.	.	-1.4
CN(C)S(=O)(=O)c1ccc(NC(=O)CN2CCOCC2)cc1	.	4	-4%	.	-0.4
COc1ccc(C2/C=C\CN(C(=O)C3CC3)[C@H](Cc3ccccc3)C(=O)N2Cc2ccc(F)cc2)cc1 (some centres not stated)	.	20	5%	.	13
O=C(CCn1c(=O)[nH]c2ccccc2c1=O)N1CCN(c2cccc(C(F)(F)F)c2)CC1	7	5	0%	-41	1.1
Next records follow.
SMILES	Arbovirus anti	Mtb bLac sens	Mtb H37Rv	YopH PTP inh	RecA intein inh	others
Cc1[nH]c2ccccc2c1C(=O)CSC(=S)N(C)C	-7	4	8%	-20	-4.4
Cc1ccc(-n2ncc3c(NNC(=O)c4ccco4)ncnc32)c(C)c1	13	12	12%	.	-6.4
CC(=O)c1nc(N2C(=O)CC(Cc3cccc(C)c3)C2=O)sc1C (configuration not stated)	5	3	9%	-14	0.2
O=C1CSC(=Nc2ccc(O)cc2)N1c1ccc(O)cc1	0	-2	.	-32	-3.9
Cc1ccc(S(=O)(=O)N2CCC(C(=O)Nc3nnc(C45CC6CC(CC(C6)C4)C5)s3)CC2)cc1	3	.	-1%	-23	.
CC1(C)OC(=O)N(c2ccccn2)C1(C)O (configuration not stated)	4	-4	-2%	-56	-3.4
Cc1ccc(OCCCn2ccnc2)c([N+](=O)[O-])c1	6	0	7%	-11	0.7
Cc1cccc(NC(=O)c2sc(NC(=O)c3ccco3)c(C#N)c2C)c1C	8	5	50%	-52	-1.7
O=S(=O)(c1ccc(F)cc1)N1CCN(C(=S)NCc2ccccc2)CC1	6	10	-7%	.	1.0
CC(=O)NC(CC(=O)NNC(=O)C(C)Oc1ccccc1F)c1ccccc1 (configuration not stated)	.	0	.	.	-1.7
Cc1cccc(C)c1NC(=O)COC(=O)c1ccc([N+](=O)[O-])o1	3	51	2%	.	.
O=[N+]([O-])c1ccc(NCc2ccccc2)c2nonc12	5	6	35%	.	4.9
O=C(Nc1ccccc1)c1ccc(NC(=O)C2CC2)cc1	.	1	.	.	-2.2
Cc1cc(N2CCCC2=O)ccc1S(=O)(=O)Nc1c(C)nn(C)c1C	0	-1	-4%	.	0.4
CSc1ccc(CCNC(=O)CS(=O)(=O)Cc2nc(-c3ccccc3F)oc2C)cc1	.	4	.	.	1.1
O=C(CCSc1nnc(-c2ccc(O)cc2)o1)N1CCOCC1	0	2	-1%	.	-0.1
O=C(Nc1nnc(SCc2ccccn2)s1)C1CC(=O)N(c2ccc(F)cc2)C1 (configuration not stated)	.	-6	.	.	3.4
Cc1sc2nc(C3CC3)nc(SCC(=O)N3CCc4ccccc4C3)c2c1C	1	1	-5%	-15	19
COc1ccc(/C(N)=N/OC(=O)COc2ccccc2Cl)cc1	-4	7	10%	-17	0.4
Cc1cccc(NC(=O)N2CCCC2C(=O)NCc2ccccc2)c1 (configuration not stated)	.	-4	.	.	-0.6
COc1ccc(C2=NN(C(=S)Nc3ccccc3)C(c3ccccc3)C2)cc1 (configuration not stated)	6	12	12%	13	1.4
COc1cc(NC(=O)CCN2CCOCC2)cc(OC)c1	.	-1	.	.	-1.4
CN(Cc1c(F)cccc1Cl)c1ccc(S(=O)(=O)N2CCOCC2)cn1	7	2	2%	-27	0.9
CCN1C(=NCCOC)N[C@@H](c2cccs2)C(C(=O)OC)=C1C	.	-6	.	.	4.4
Cc1onc(-c2ccccc2Cl)c1C(=O)Nc1nc2c(s1)CCCC2	-7	14	-2%	-18	5.0
(list continues)
SMILES	Arbovirus anti	Mtb bLac sens	Mtb H37Rv	YopH PTP inh	RecA intein inh	others
CCSc1ncc(Cl)c(C(=O)Nc2ccccc2F)n1	.	-6	.	.	-0.8
CCCCc1nc2cc(C(=O)N3CCCCC3CCO)ccc2o1 (configuration not stated)	.	?	.	.	3.9
O=S(=O)(Nc1cccc(-c2ccc3nncn3n2)c1)c1cccs1	3	1	2%	.	-3.3
CN1C[C@@H]2C[C@@H](c3cccn3-c3nccs3)N3CCC[C@@]23C1=O	1	-13	3%	.	-1.1
COC(=O)c1c(NC(=O)COC(=O)CC(NC(C)=O)c2ccccc2)sc(C)c1C (configuration not stated)	.	-5	.	.	-1.3
Cc1ccccc1NC(=O)Cc1nnc(SCC(=O)Nc2ccccc2)n1C	0	1	5%	.	-5.8
Cc1cc(C)c(NC(=O)C[N+](C)(C)CC(O)COc2cccc3ccccc23)c(C)c1 (configuration not stated)	13	100	?	.	0.6
CCOc1ccc(NC(=O)c2cc(=O)[nH]c3ccccc23)cc1	.	8	.	.	3.2
c1ccc2c(c1)OCCOCCOCCOCCOCCOc1ccccc1OCCOCCOCCO2	7	-1	5%	-19	-2.1
COc1ccc(S(=O)(=O)NCCC(C)C)cc1OC	4	-3	0%	-3	4.0
O=C(NCc1ccccc1)C1c2ccccc2Oc2ccccc21	-2	0	7%	.	4.7
Cc1cc(=S)cc(C)n1CCCn1ccnc1	7	-10	-6%	-40	4.4	Arbovirus anti repeat=3
COC(=O)C(/C=N/OCc1ccc([N+](=O)[O-])cc1)NC(=O)c1cccc(Cl)c1 (configuration not stated)	6	-5	0%	0	2.0
CC(NC(=O)CCn1nc(-c2ccc(Cl)cc2)ccc1=O)c1ccccc1 (configuration not stated)	4	2	3%	.	6.9
Cc1[nH]n2c(=O)c(C#N)c(-c3ccccc3)nc2c1-c1ccccc1	20	95	-11%	-34	-2.3
COc1ccccc1CNC(=O)C1CCC(CNS(=O)(=O)c2ccc(NC(C)=O)cc2)CC1 (configuration not stated)	.	-4	.	.	4.3
CC(=O)Nc1cccc(NC(=O)CSc2ccc(C(F)(F)F)cc2[N+](=O)[O-])c1	-3	-7	-7%	-21	-1.5
CCOC(=O)c1cn(Cc2cccc(Cl)c2)c2cc(C)nn2c1=O	.	20	-14%	.	-0.8

Compounds listed so far that have a furan ring, fused or not:
SMILES	Arbovirus anti	Mtb bLac sens	Mtb H37Rv	YopH PTP inh	RecA intein inh	others
COc1cc(O)oc1C=Nc1ccc(C(=O)O)cc1	8	1	5%	.	-3.7
NC(=O)COC(=O)c1ccc2c(c1)C(=O)N(Cc1ccco1)C2=O	.	7	.	.	-1.5
Cc1ccc(N2CCN(CC(=O)Nc3c(C(=O)C4CC4)oc4ccccc34)CC2)cc1	3	.	6%	-45	.
Cc1ccc(-n2ncc3c(NNC(=O)c4ccco4)ncnc32)c(C)c1	13	12	12%	.	-6.4
Cc1cccc(NC(=O)c2sc(NC(=O)c3ccco3)c(C#N)c2C)c1C	8	5	50%	-52	-1.7
Cc1cccc(C)c1NC(=O)COC(=O)c1ccc([N+](=O)[O-])o1	3	51	2%	.	.

From PubChem

This is a subset, so the mix of outcomes need not match the whole.
